BJeLR lethal: BJeLR cell viability loss. BJeLR (HRASV12) viability, CellTiter-Glo ATP luminescence, 48 h; reference of the scale not given here. inhibition, % (no concentration beside the values). hit rate 0.17% among 300,000;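 active means replicate mean above 50%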;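 further: 50 nL library stock added to about 25 µL; numbers are from one replicate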
Mtb hypoxia rep: inhibitors of hypoxia-regulated fluorescent reporter in Mycobacterium tuberculosis; M. tuberculosis hypoxia-regulated fluorescent reporter, fluorescence; fluorescence inhibition, % (test concentration not listed); hit rate 0.1% among 300,000;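 active means 35 to 45% if threefold the growth effect, above 45% if 1.5-fold the growth effect; inactive means the rest, general growth blockers included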;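 further: wells of about 50 µL received 100 nL stock; 0% = vehicle wells and 100% = reference inhibitor wells; whole bacteria with a GFP reporter of the hypoxia response; strong numbers were not always called active; many hits fall short of the cut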
Sa ugtP lethal: kills S. aureus RN4220 lacking UgtP; hit rate 0.54% among 330,000; S. aureus RN4220 ugtP deletion, OD600 growth, 16 h; some inactives read as strong as hits; growth inhibition, % (no concentration beside the values); AID 1259309;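 active means z-score under -3 and OD600 up to 0.15 on both plates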;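 further: plate controls were untreated wells for no effect and antibiotic for full effect; wells of about 80 µL received 100 nL stock; the first replicate is given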
Bead autofluor: counter-screen for toxin protease inhibitors: compound fluorescence; fluorescence intensity (concentration not given with the values); compound autofluorescence counterscreen, microsphere flow cytometry; stronger effect = higher value; hit rate 3.1% among 360,000;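 active means at least 3 SD above the mean of all compounds, about 16000 in these data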;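 further: 100 nL of 1 mM stock went into each well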
RN4220 kill: S. aureus RN4220 growth inhibition; OD600, 16 h; hit rate 0.33% among 330,000; AID 1259311; inhibition, % (no concentration beside the values);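 active means z-score of -3 or lower and OD600 up to 0.18 on both plates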;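 further: plate controls were untreated cells for no effect and reference antibiotic for full effect; stock transfer was 100 nL into about 80 µL; one replicate is shown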
PrP UTR inh: inhibition of PrP 5' UTR reporter expression. cell-based PrP 5' UTR mRNA reporter, plate reader. inhibition, % (test concentration not listed). hit rate 0.35% among 340,000. AID 488862;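 active means every replicate at 50% or more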;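 further: 0 = median of the neutral control wells; tested in H4 reporter cells; numbers are from one replicate; inactives centre near -14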
Mtb hypoxia rep growth: recorded beside Mtb hypoxia rep, whose call it bears; growth inhibition, %; measured here: M. tuberculosis growth (absorbance);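 0% = vehicle and 100% = reference antibiotic; read after six days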
Numbers without * were called inactive; nt = no result given; & = joins results of further samples.

SMILES	BJeLR lethal	Mtb hypoxia rep	Mtb hypoxia rep growth	Sa ugtP lethal	Bead autofluor	RN4220 kill	PrP UTR inh
COC(=O)[C@H](CCSC)NC(=O)NCCc1ccccc1F	-2	7	6	2	10918	5.6	-22
CCOC(=O)NC(=O)COC(=O)CNC(=O)c1ccc(OCC)c(OCC)c1	5	6	16	4	4106	12	-20
COc1ccc(C2NC(=O)NC(C)=C2[N+](=O)[O-])cc1OC (centres undefined)	-1	9	9	5	3603	2.8	-16
CCSCCOC(=O)C1=C(C)NC(=O)NC1c1cccc(OC)c1OC (centres undefined)	-11	16	5	2	11017	4.3	-12
COc1ccc(CCn2c(=N)c(C(=O)NC3CCCC3)cc3c(=O)n4cccc(C)c4nc32)cc1	-5	5	10	6	5803	0.7	-13
CCN(Cc1ccccc1)C(=O)C1CCN(CC2CC=CCC2)CC1 (centres undefined)	-4	0	7	7	2056	7.4	-2
C(=N\n1cnnc1)/c1nc2ccccc2[nH]1	-5	nt	nt	nt	4239	nt	-7
CCC(=O)N1CCc2cc(Br)c(S(=O)(=O)CCC(=O)NCCOC)cc21	nt	4	2	-2	3935	0.8	-16
CCCOC1CCCN(Cc2nc(-c3cnccn3)no2)C1 (centres undefined)	20	-11	4	6	4198	8.5	-42
CCOc1ccc(OCC)c(NC(=O)C2CCCN(S(=O)(=O)c3c(C)n[nH]c3C)C2)c1 (centres undefined)	-6	nt	nt	7	5670	0.0	-23
CCOC(=O)/C(C)=N/NC(=O)c1cccc([N+](=O)[O-])c1	-12	nt	nt	nt	2165	nt	-5
CCN(CC)S(=O)(=O)c1ccc(NC(=O)COC(=O)c2ccc(NC(=O)CC#N)cc2)cc1	-2	0	8	7	4442	-1.5	-32

The last 2 entries of the section above come first, to join the parts:
SMILES	BJeLR lethal	Mtb hypoxia rep	Mtb hypoxia rep growth	Sa ugtP lethal	Bead autofluor	RN4220 kill	PrP UTR inh
CCOC(=O)/C(C)=N/NC(=O)c1cccc([N+](=O)[O-])c1	-12	nt	nt	nt	2165	nt	-5
CCN(CC)S(=O)(=O)c1ccc(NC(=O)COC(=O)c2ccc(NC(=O)CC#N)cc2)cc1	-2	0	8	7	4442	-1.5	-32
CN1CCC=C(C(=O)N2c3ccccc3Sc3ccc(Cl)cc32)C1	0	-3	6	9	3891	2.5	-4
O=C1CN(C(=O)CSc2nnc3ccccn23)c2ccccc2N1	-2	-5	-3	3	2427	3.4	-13
COc1ccc(-c2nnc3ccc(SCC(=O)Nc4nc5ccc(C)cc5s4)nn23)cc1OC	-11	-3	-9	6	2636	6.5	-8
CCCC(=O)N=c1sc2cccc(F)c2n1C	5	6	2	0	6146	-4.8	-21
COc1cc(OC)c(C(=O)CCC(=O)O)cc1OC	-12	0	-6	1	8880	-1.3	-26
Cn1c(SCC(=O)NNC(=O)c2ccccc2O)nnc1-c1ccccc1	11	19	6	4	4056	3.2	8
COc1cc(-c2cc(C(F)(F)F)n3ncc(C(=O)O)c3n2)cc(OC)c1OC	1	5	2	-2	2306	3.9	-6
COCCNC(=S)N(CCc1c(C)[nH]c2ccc(Cl)cc12)Cc1cccs1	3	-2	6	25	4621	41	-24
COC(=O)CN1C(=O)COc2ccc(S(=O)(=O)NCc3ccc(F)cc3)cc21	7	0	-6	0	4214	-0.6	1
O=C(CSc1nnc(NC(=O)c2cccc(F)c2)s1)NC1CC1	2	15	5	0	5321	-2.8	-15
CC(C)C[C@H](N)c1nnc(S(=O)(=O)Cc2cccc(F)c2)o1	-7	18	3	-5	10530	12	-44
CCN(CC)c1ccc(S(=O)(=O)N2CCOCC2)cc1NC(=O)CNCc1cccc(Cl)c1	nt	5	-2	-7	2699	5.1	-2
Cc1nnc(SCC(=O)NC2CC2)s1	-6	8	3	3	5793	-1.2	3
Cc1nn(Cc2ccccc2)c(Cl)c1/C=C/C(=O)OCC(=O)NC(C)C(C)C (centres undefined)	-3	2	7	-1	3204	-3.6	-19
CCCCOc1ccc(C(=O)Nn2cnnc2)cc1	-3	12	6	-2	23869*	9.0	-9
CCN(CC)C(=O)C1CCCN(c2ccc([N+](=O)[O-])cc2/C=N/NC(=O)c2ccc([N+](=O)[O-])cc2)C1 (centres undefined)	-4	nt	nt	nt	6571	nt	-17
O=C(NN=C1CCCCC1)c1ccccc1OCc1ccc(F)cc1	16	17	9	10	2718	3.9	-9
Cc1ccc2nc(-c3ccc(SCC(=O)Nc4cc(C)on4)nc3)[nH]c2c1	11	nt	nt	3	2760	9.8	-85
CCOc1ccc2[nH]c(=O)c(CN(Cc3ccco3)C(=O)c3ccc(Br)cc3)cc2c1	-4	2	2	-13	2559	-7.6	-34
COC(=O)c1ccc(C(=O)OC)c(NC(=O)CSc2cccc[n+]2[O-])c1	-1	22	15	15	13459	3.8	nt
Cc1cccc(NS(=O)(=O)c2cccc(C(=O)NCc3ccccc3CN3CCOCC3)c2)c1	nt	-12	2	-5	9042	3.3	-7
NC(=NN=Cc1ccc(Br)o1)c1nonc1N	nt	11	7	-4	nt	3.6	nt
CCc1nc2ccc(C(=O)Nc3nnc(C)s3)cc2nc1CC	-4	13	-4	-4	4685	2.5	-27
CSc1nc(N(C)CCO)c2sc3nc(-c4ccco4)c4c(c3c2n1)CCC4	-8	-2	7	-10	22092*	4.3	0
OCC1(Cc2cccc(Cl)c2)CCCN(Cc2ccc3cc(F)ccc3n2)C1 (centres undefined)	4	6	0	-8	5594	-1.2	-11
Cc1cccc(NC(=O)CN2CCOCC2)c1C	3	6	-4	11	nt	1.6	-14
CCCCOCCCNC(=O)N[C@H](C(=O)O)C(C)CC (some centres undefined)	8	18	0	3	4597	2.2	-14
O=C(NC1CCCCC1)C1CC(=O)N(CCc2ccccc2)C1 (centres undefined)	-2	5	10	6	21522*	1.1	-13
CC(C)CCn1c(SCC(=O)Nc2ccccc2C(F)(F)F)nc2nccnc2c1=O	0	12	0	2	4604	3.2	-69
COc1ccc(OC)c2[nH]c(C(=O)O)cc12	5	10	1	0	5546	1.9	1
CCOc1ccc(-c2nc(N)nc(C)c2-c2ccc(OC)c(OC)c2)c(O)c1	nt	nt	nt	2	4153	-1.1	-23
Cc1cc(OCC(=O)Nc2cc(C(C)(C)C)on2)ccc1[N+](=O)[O-]	-9	0	7	2	6579	-11	-12
CC(OC(=O)C1COc2ccccc2O1)C(=O)N(C)c1ccccc1 (centres undefined)	-3	8	9	9	4608	5.6	-23
CCC(C)NC(=O)C1CCN(C(=O)N(C)C)CC1 (centres undefined)	-5	3	2	14	6931	6.0	-10
CC(C)=C1C(=O)NN(c2cccc(Cl)c2)C1=O	6	3	-1	7	2563	2.0	-16
COc1ccc(C(=O)CSc2nnc(Cc3ccccc3)o2)cc1	1	-2	-2	9	5554	3.2	9
Cc1nccn1CC(=O)O	-8	5	7	-2	nt	2.1	nt
CCN1CCN(c2ccc(S(=O)(=O)N3CCOCC3)cc2NC(=O)c2ccccc2SC)CC1	-4	-1	1	5	6462	2.5	-7
O=C(CCc1ccccc1)Nc1cc2c3c(c1)CC(=O)N3CCC2	2	5	-3	4	nt	0.5	0
Cc1cc(N2CCN(c3ccc(F)cc3)CC2)n2ncnc2n1	-2	-9	-9	8	3963	5.1	-1
Cc1ccccc1C(=O)NC(C)C1CC2CCC1C2 (centres undefined)	-10	nt	nt	5	3661	13	-20
Cc1ccc(NCCC(=O)c2cccs2)cc1C	-2	17	4	4	3319	7.7	-57
COc1cc(/C=N/N2CCN(Cc3ccc(Cl)cc3)CC2)cc(Br)c1O	15	nt	nt	nt	4715	nt	-22
CCc1ccc(S(=O)(=O)Nc2ccccn2)cc1	-1	nt	nt	nt	3762	nt	-18
O=C(C1CCN(S(=O)(=O)c2cccc3nsnc23)CC1)N1CCCCC1	-2	9	14	7	5176	1.6	-20
Nc1nonc1-c1noc(COc2ccccc2Cl)n1	6	nt	nt	4	3596	0.6	-124
C(=C\c1ccccc1)/CNn1cnnc1	-7	19	-8	0	2148	1.3	-13
COc1ccc(NC(=O)C(=S)NC2CCCCC2)cc1	-8	-4	5	2	4317	8.0	-11
COCCN1C(=O)NC(c2ccccc2)C(C(=O)OC)C1C (centres undefined)	nt	20&3	9&13	3&-16	nt	5.0&-2.2	nt
CCCCS/C(N)=N/N=C/c1cc(C)ccc1O	11	nt	nt	nt	2443	nt	-19
O=C(O)c1ccccc1C(=O)c1cccs1	-6	16	9	-8	2845	-15	-3
O=C(Cc1ccccc1)Nc1cc(Cl)ccc1Sc1ccccc1	-10	6	9	7	2500	-2.0	-9
Cc1cc(=O)oc2cc(NC(=O)c3ccccc3C(=O)O)ccc12	1	17	2	14	3962	2.6	-18
Cc1cc(NC(=O)CSc2nnc(Nc3ccccc3F)s2)no1	8	-2	2	11	4373	4.5	-29
CCc1cccc(NC(=O)CCNS(=O)(=O)c2ccc3[nH]c(=O)oc3c2)c1	12	9	1	4	5945	4.2	-12
CC1=C(SCc2ccccc2)C(=O)c2ccccc2C1=O	nt	-16	13	-7	4317	12	-34
Cc1c(NS(=O)(=O)CC23CCC(CC2=O)C3(C)C)c(=O)n(-c2ccccc2)n1C (centres undefined)	-7	-5	4	2	9324	4.3	-7
Cc1[nH]c(=S)sc1Cc1ccc(F)cc1	-10	2	0	14	2542	-3.9	-9
COc1cc2cc(C)c(Br)c(OC)c2cc1OC	nt	19	11	-9	2946	-0.7	3
Cn1c(SCc2ccccc2Cl)nc2ccccc21	3	7	7	27	2971	5.3	-120
The results go on.
SMILES	BJeLR lethal	Mtb hypoxia rep	Mtb hypoxia rep growth	Sa ugtP lethal	Bead autofluor	RN4220 kill	PrP UTR inh
O=C(NC(=S)Nc1cccc(F)c1)c1cccc([N+](=O)[O-])c1	-8	nt	nt	nt	4262	nt	-43
Cc1nc(Cl)c(S(N)(=O)=O)c(C)c1Cl	-2	7	6	3	4717	5.5	-21
COc1cc2c(cc1OC)C(C1C(=O)CCCC1=O)N(C(=O)CCl)CC2 (centres undefined)	6	0	0	13	2241	-2.1	-15
O=C(O)c1ccccc1-c1ccccc1C(=O)Nc1ccccc1	-5	nt	nt	1	5120	3.8	-23
CCCc1cc(=O)[nH]c(SC(CC)C(=O)Nc2ccccc2C#N)n1 (centres undefined)	6	6	10	-4	2908	3.8	-18
CSc1nc(C)cc(OCC(=O)NN=Cc2ccccc2O)n1	nt	7	4	2	nt	2.3	nt
COc1ccc(C(CCN2CCCCC2)c2c(OC)cc(OC)c3c(-c4ccccc4)cc(=O)oc23)cc1 (centres undefined)	9	nt	nt	-36	3047	-4.4	-21
COc1ccc(S(=O)(=O)N2CCOCC2)cc1NC(=O)c1cccc2c(=O)c(C)c(-c3ccccc3)oc12	-2	12	-3	-12	2604	8.7	-1
Cc1ccc(C)c(N2N=C(C(=O)Nc3nccs3)CCC2=O)c1	1	9	12	12	3989	6.3	-8

Sorted by formula weight (falling): 14 of the compounds above.
SMILES	BJeLR lethal	Mtb hypoxia rep	Mtb hypoxia rep growth	Sa ugtP lethal	Bead autofluor	RN4220 kill	PrP UTR inh
COc1ccc(-c2nnc3ccc(SCC(=O)Nc4nc5ccc(C)cc5s4)nn23)cc1OC	-11	-3	-9	6	2636	6.5	-8
Cc1cccc(NS(=O)(=O)c2cccc(C(=O)NCc3ccccc3CN3CCOCC3)c2)c1	nt	-12	2	-5	9042	3.3	-7
COCCNC(=S)N(CCc1c(C)[nH]c2ccc(Cl)cc12)Cc1cccs1	3	-2	6	25	4621	41	-24
COC(=O)CN1C(=O)COc2ccc(S(=O)(=O)NCc3ccc(F)cc3)cc21	7	0	-6	0	4214	-0.6	1
CCOC(=O)NC(=O)COC(=O)CNC(=O)c1ccc(OCC)c(OCC)c1	5	6	16	4	4106	12	-20
Cc1ccc2nc(-c3ccc(SCC(=O)Nc4cc(C)on4)nc3)[nH]c2c1	11	nt	nt	3	2760	9.8	-85
Cc1cc(NC(=O)CSc2nnc(Nc3ccccc3F)s2)no1	8	-2	2	11	4373	4.5	-29
O=C(Cc1ccccc1)Nc1cc(Cl)ccc1Sc1ccccc1	-10	6	9	7	2500	-2.0	-9
Cc1cc(=O)oc2cc(NC(=O)c3ccccc3C(=O)O)ccc12	1	17	2	14	3962	2.6	-18
COCCN1C(=O)NC(c2ccccc2)C(C(=O)OC)C1C (centres undefined)	nt	20&3	9&13	3&-16	nt	5.0&-2.2	nt
CCCCS/C(N)=N/N=C/c1cc(C)ccc1O	11	nt	nt	nt	2443	nt	-19
CCC(C)NC(=O)C1CCN(C(=O)N(C)C)CC1 (centres undefined)	-5	3	2	14	6931	6.0	-10
CC(C)=C1C(=O)NN(c2cccc(Cl)c2)C1=O	6	3	-1	7	2563	2.0	-16
Cc1nccn1CC(=O)O	-8	5	7	-2	nt	2.1	nt
